Screening results deposited in PubChem BioAssay by National Center for Advancing Translational Sciences (NCATS).
gsp antag: qHTS for Antagonists of gsp, the Etiologic Mutation Responsible for Fibrous Dysplasia/McCune-Albright Syndrome: qHTS. 0.4% of 340,000 active. Potency, µM (top dose mostly 76.9 µM), without a hit: top-dose activity change, negative = inhibition, hits mostly inhibitors. gsp-mutant cells, cAMP HTRF, 30 min; control for the full effect not named in the record; active = falling curve of any shape with a large fitted effect; inconclusive = falling curve, mostly with a smaller effect; inactive = flat or rising curve; cell line not stated here;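 note: intracellular cAMP measured with PDE inhibitor Ro 20-1724 present during compound exposure; potency is the fitted concentration of half-maximal effect; % is set by controls: 0 for no effect and ±100 for the full control effect; nearly all actives have a fitted effect of over 65% in size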
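G418-selected cells were plated in DMEM/10% FBS for 16-24 h at 37C, then treated with compounds plus the PDE inhibitor […] (300 uM solution added) for 30 min at 37C. Intracellular cAMP was measured by HTRF after 30 min lysis at room temperature.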
Six1-Eya2 inh: qHTS Assay for Inhibitors of the Six1/Eya2 Interaction | Homeobox protein SIX1 (Homo sapiens) + Protein phosphatase EYA2 (Homo sapiens), … | AlphaScreen GST-Six1/His-Eya2 binding, biochemical; active compounds read low; control for the full effect not named in the record | activity change, % (no concentration beside the values) | 0.56% of 360,000 active | AID 651725, 2012; in the data active = activity change below about -65%; inconclusive = about -30% to -65%; inactive = above about -30%; note: % is set by controls: 0 for no effect and ±100 for the full control effect
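GST-Six1 + His-Eya2 (5X stock: 250/500 nM); Tris pH 8.0, 300 mM NaCl, 0.05% BSA, 0.02% Tween 20; GSH donor/Ni acceptor beads; 1 h 37 °C dark; AlphaScreen readout.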
D2 ag: Beta-Arrestin HTS for Positive Allosteric Modulators of the Human D2 Dopamine Receptor: Agonists. activation, % (test concentration not listed). 0.084% of 360,000 active. DiscoveRx PathHunter D2 beta-arrestin, luminescence, 90 min; 100% = 57 uM dopamine signal. D(2) dopamine receptor (Homo sapiens), P14416; in the data active = activation above about 40%; inconclusive = about 15% to 40%; inactive = below about 15%; note: compound concentration not given in the record; the text of the record calls up to 30% inactive
Target sequence (P14416 whole entry, looked up): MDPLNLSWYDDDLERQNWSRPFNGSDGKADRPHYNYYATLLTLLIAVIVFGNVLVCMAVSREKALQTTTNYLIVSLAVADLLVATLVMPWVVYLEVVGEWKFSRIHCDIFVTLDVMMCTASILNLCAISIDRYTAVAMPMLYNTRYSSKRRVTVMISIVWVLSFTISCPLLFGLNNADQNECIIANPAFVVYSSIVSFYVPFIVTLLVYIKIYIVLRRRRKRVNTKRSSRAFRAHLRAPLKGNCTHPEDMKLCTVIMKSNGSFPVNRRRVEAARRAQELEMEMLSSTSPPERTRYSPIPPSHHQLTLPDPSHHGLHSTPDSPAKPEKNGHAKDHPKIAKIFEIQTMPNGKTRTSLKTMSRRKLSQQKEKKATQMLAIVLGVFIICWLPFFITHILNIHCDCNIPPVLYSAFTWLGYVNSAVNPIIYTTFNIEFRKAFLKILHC
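Agonist mode: compounds alone added to overnight-plated D2 PathHunter cells for 90 min at 37 C, with 57 uM final dopamine (EC100) defining full response. Beta-arrestin recruitment detected by chemiluminescent reagent, read after 1 h at ambient temperature.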
CtBP-E1A inh: qHTS Assay for Inhibitors of the CtBP/E1A Interaction | CtBP / adenovirus E1A interaction (AlphaScreen) | AlphaScreen GST-E1A/His-CtBP binding, 1536-well; active compounds read low; control for the full effect not named in the record | activity change, % (no concentration beside the values) | 0.49% of 340,000 active | AID 651724, 2012; in the data active means activity change below about -65%; inconclusive means about -30% to -65%; inactive means above about -30%; note: % is set by controls: 0 for no effect and ±100 for the full control effect
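GST-E1A and His-tagged CtBP (125 nM each as 5X stock) were preincubated with pin-transferred compound for 2 h at 37 °C in the dark, then glutathione donor and nickel acceptor beads were added for 1 h before AlphaScreen reading.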
D2 potentiator: Beta-Arrestin HTS for Positive Allosteric Modulators of the Human D2 Dopamine Receptor: Potentiators; DiscoveRx D2 beta-arrestin cells, luminescence, 90 min; 100% = 57 uM dopamine signal; D(2) dopamine receptor (Homo sapiens), P14416; 0.23% of 360,000 active; potentiation, % (concentration not given with the values); active = potentiation of 50% or more; inconclusive = 30% to 50%; inactive = 30% or less;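 note: compound concentration not given in the record; tested on top of an EC20 dose of dopamine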
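D2 cells co-treated with compound plus 50 nM dopamine (EC20) for 90 min at 37 deg C to detect potentiation. Beta-arrestin recruitment was read as enzyme-fragment luminescence after 1 h at ambient temperature. Full response was set by 57 uM dopamine.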
gsp ag: qHTS for Agonist of gsp, the Etiologic Mutation Responsible for Fibrous Dysplasia/McCune-Albright Syndrome: qHTS; gsp mutant cells, cAMP HTRF, 30 min; control for the full effect not named in the record; Potency, µM (titrated, usually from 76.9 µM), for inactives: at the top dose activation (cAMP increase), hits mostly activators; 0.13% of 340,000 active; active = well fitted activation curve with a large enough effect; inconclusive = small, poorly fitted or top-dose-only effect, or another doubt; inactive = no such curve, though single readings can be large or run the other way; cell line not stated here;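 note: phosphodiesterase inhibitor Ro 20-1724 added with compounds to block cAMP breakdown; potency is the fitted concentration of half-maximal effect; nearly all actives have a fitted effect of over 60% in size; about a fifth of the inactives were tested at one dose only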
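Cells stably selected in G418 were plated at 2000/well, grown 16-24 hr, then given compounds in DMSO with the PDE inhibitor […] (300 uM solution added) for 30 min at 37C; cAMP was read by HTRF.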
Starred values were filed as active, the others as inactive; u = inconclusive; x = not tested or not shown; [ ] = remark or other dose.

Sample of the layout (five entries):
smiles,gsp antag,Six1-Eya2 inh,D2 ag,CtBP-E1A inh,D2 potentiator,gsp ag
CCc1c(O)nc(SCC(N)=O)n(-c2ccccc2F)c1=O,-2%,-1,-1.6,9,4,-1%
Cn1c(CNC(=O)c2ccc(Cl)cc2)nnc1SCC(=O)NC1=NCCS1,9%,0,-2.1,-1,-7,-5%[15.4 µM]
COc1ccc(OCC(=O)N2CCN(S(=O)(=O)c3ccc(Cl)s3)CC2)cc1,-5%,-3,-5.3,-6,-16,5%
Cc1ccc(SCC(=O)Nc2ccccc2C(=O)O)cc1,-42%,-8,3.5,1,6,-20%
O=C(CSCc1ccc([N+](=O)[O-])cc1)NCCSCc1ccccc1,0%,-5,-2.0,0,-6,-17%

Results, from the start:
smiles,gsp antag,Six1-Eya2 inh,D2 ag,CtBP-E1A inh,D2 potentiator,gsp ag
CCc1c(O)nc(SCC(N)=O)n(-c2ccccc2F)c1=O,-2%,-1,-1.6,9,4,-1%
Cn1c(CNC(=O)c2ccc(Cl)cc2)nnc1SCC(=O)NC1=NCCS1,9%,0,-2.1,-1,-7,-5%[15.4 µM]
COc1ccc(OCC(=O)N2CCN(S(=O)(=O)c3ccc(Cl)s3)CC2)cc1,-5%,-3,-5.3,-6,-16,5%
Cc1ccc(SCC(=O)Nc2ccccc2C(=O)O)cc1,-42%,-8,3.5,1,6,-20%
O=C(CSCc1ccc([N+](=O)[O-])cc1)NCCSCc1ccccc1,0%,-5,-2.0,0,-6,-17%
O=[N+]([O-])c1ccc(Sc2n[nH]c(-c3ccco3)n2)nc1,4%,4,2.0,-1,17,2%
COc1ccc(N2CC(C(=O)NC3CCCCC3)CC2=O)cc1 (configuration not stated),4%,3,0.0,-7,-3,-3%[15.4 µM]
COCCn1c(C)nc2oc3ccc(Br)cc3c(=O)c2c1=O,-1%,-1,-2.2,3,-7,u
O=C(O)CCC(=O)NNC(=O)CCC1CCCCC1,14%,11,-0.3,8,-12,-17%
CCOc1ccc(NS(=O)(=O)c2cc(OC)ccc2OC)cc1,u,0,1.9,-5,-22,-6%
ON=C1CCCC2CCCCC12 (configuration not stated),3%,12,-4.3,-1,-3,-46%[inhibitor]
O=C(Nc1ccccc1C(=O)N/N=C/c1ccccc1)c1ccco1,-3%,-10,3.3,-16,-4,0%
COc1ccc(OC)c(NC(=O)C(C)OC(=O)c2cc3ccccc3[nH]2)c1 (configuration not stated),22µM*,0,-0.2,-9,-7,5%
CC(C)C(NC(=O)c1ccccc1)C(=O)OCn1nnc2ccccc2c1=O (configuration not stated),-6%,17,-2.4,22,-2,-16%
CCOC(=O)C1=C(C)OC(N)=C(C#N)C1c1ccsc1 (configuration not stated),2%,2,-5.6,0,-19,12%
O=C(C(=O)N1CCCCCC1)c1c[nH]c2ccccc12,0%,13,1.5,-12,-6,7%[15.4 µM]
CCN(CC(=O)Nc1cccc(OC)c1)C(=O)c1cnc(Cl)c(Cl)c1,-8%,0,-1.1,-21,-4,-4%
N#C/C(=C\c1cccnc1)C(=O)Nc1ccccc1[N+](=O)[O-],8%,-14,0.3,-19,-6,0%
C/C(=N\OCC(=O)Nn1c(=O)[nH]c2ccccc2c1=O)c1cccs1,3%,3,-1.4,x,-3,-28%
CCCCCN(C(=O)CCC(=O)OCCOc1cccc(C)c1)c1c(N)n(CCCC)c(=O)[nH]c1=O,u,1,-6.0,3,3,-10%
OCC1CCCCN1C(=S)Nc1ccc(Cl)cc1Cl (configuration not stated),-1%,3,-7.0,-1,-4,2%
O=C(Nc1ccc(F)c(Cl)c1)c1cc(C2CCCCN2C(=O)c2ccccc2)on1 (configuration not stated),x,-1,-4.2,2,-7,x
COc1ccc(CN(CC(=O)NC(C)C)C(=O)CCC(=O)Nc2nccs2)cc1,-14%,0,-0.5,-10,-4,3%[15.4 µM]
O=C(Nc1cccc(O)c1)c1noc2c1CCc1ccccc1-2,-7%,-5,1.8,1,-8,1%
Cc1ccc2c(CSc3nnc(C4CC4)n3N)cc(=O)oc2c1,-8%,-2,-4.1,12,-4,3%
Nc1nnc(-c2cccc([N+](=O)[O-])c2)o1,3%,0,0.3,3,13,-13%[15.4 µM]
CCOC(=O)N1CCc2c(sc(NC(=O)CN(CC)CC)c2C#N)C1,-1%,-5,0.9,5,-4,-21%
Cc1ccc(NC(=O)CSc2nc3c([nH]c4ccccc43)c(=O)n2C)cc1,5%,-4,-4.5,0,-7,-17%
CC1(Oc2ccc(Cl)cc2)CCN(Cc2ccc(OC(F)(F)F)cc2)C1 (configuration not stated),x,10,2.7,25,-8,x
Cc1ccc(C(=O)Nc2cc([N+](=O)[O-])ccc2F)s1,6%,-1,4.7,-2,19,-8%[15.4 µM]

Random excerpt: two entries already listed
smiles,gsp antag,Six1-Eya2 inh,D2 ag,CtBP-E1A inh,D2 potentiator,gsp ag
CCOC(=O)N1CCc2c(sc(NC(=O)CN(CC)CC)c2C#N)C1,-1%,-5,0.9,5,-4,-21%
Cc1ccc(SCC(=O)Nc2ccccc2C(=O)O)cc1,-42%,-8,3.5,1,6,-20%

Going on with the list:
smiles,gsp antag,Six1-Eya2 inh,D2 ag,CtBP-E1A inh,D2 potentiator,gsp ag
Cc1c(C)c(C)c(C(=O)C2CCN(c3ccc([N+](=O)[O-])cn3)CC2)c(C)c1C,12%,8,-6.3,5,-7,0%[15.4 µM]
COc1ccc(CN2CCC(C(=O)NCCc3ccc(OC)c(OC)c3)CC2)c(OC)c1,7%,-2,0.7,7,2,-8%
CC(C)N(C(=O)[C@H]1C[C@H](CC(=O)NCC23CC4CC(CC(C4)C2)C3)C(=O)N2CCc3c([nH]c4cc(CCC(=O)N(C)C)ccc34)[C@]12C)C(C)C,-18%,-4,-0.9,3,x,x
O=C(O)CC1(CC(=O)Nc2ccc(C(F)(F)F)cc2)CCCC1,-7%,9,0.8,9,1,-16%[15.4 µM]
COc1ccc(C(=O)N(C)c2ccccc2C(=O)NCCc2ccccc2)cc1,0%,7,2.5,5,-3,u
Cc1oc(-c2cccc(Cl)c2)nc1CS(=O)(=O)CC(=O)NCCCN1CCOCC1,2%,-4,1.7,0,-2,u
Cc1ccc(N/C=C/C(=O)c2ccc(C)cc2)cc1,-1%,2,-1.5,3,-7,-22%
CCOC(=O)C1CCCN(C(=O)/C(=C/c2ccco2)NC(=O)c2ccccc2)C1 (configuration not stated),-8%,0,-5.4,-2,-3,-2%[15.4 µM]
CC(C)c1nn2c(=O)cc(COc3cccc(NC(=O)c4ccco4)c3)nc2s1,9%,-1,-9.0,1,-5,u
Clc1ccc2nc(-c3ccccc3)c(CN3CCOCC3)n2c1,2%,0,-1.6,-1,-6,1%
CCOC(=O)C1=CCN(S(=O)(=O)c2ccc(Cl)cc2)C1c1cccc(C)c1 (configuration not stated),x,1,-4.2,4,0,x
O=C(NCCOc1ccc(F)cc1)C1CCC(=O)N(Cc2ccc(Cl)cc2)C1 (configuration not stated),x,0,0.3,2,-11,1%
CCCS(=O)(=O)N1CCN(C(=O)c2cc(OC)cc(OC)c2)CC1,-5%,9,3.2,11,3,-52%
Cc1c(Cl)cnc(NC(=O)COC(=O)Cc2coc3ccc4ccccc4c23)c1Cl,-5%,-13,-3.5,-9,-7,-5%[15.4 µM]
Cc1cc(C(=O)N2CCCC(CO)(Cc3ccc(F)cc3F)C2)nn1C (configuration not stated),x,1,-0.8,1,-14,-28%
CN(Cc1ccccc1)C(=O)c1ccc(NC(=O)Cc2ccc(NC(=O)C3CCCN(C(=O)c4ccccc4)C3)cc2)cc1 (configuration not stated),-8%,1,-2.0,5,-5,x
CCOc1ccc2nc(NC(=S)NCc3ccccc3)sc2c1,6%,-5,-3.6,-9,-4,-12%
CCOc1ccc(NC(=O)c2ccccc2OCC(=O)c2ccccc2)cc1,-12%,-6,-5.0,-1,4,u
O=S(=O)(Nc1ccc(-c2nc3cccnc3s2)cc1)c1cccs1,-16%,1,-5.4,-19,-5,19%
O=S(=O)(c1ccccc1C(F)(F)F)N1C=CC(C(F)(F)F)=NCC1,4%,3,-4.3,x,-19,4%
Cc1ccc(OCC(O)CN2C(=O)NC(C)(C)C2=O)c(C)c1 (configuration not stated),2%,-2,1.4,-7,-4,-21%
O=C(c1cccc(S(=O)(=O)Nc2ccc(F)cc2)c1)N1CCOCC1,-1%,5,-2.3,x,0,13%
O=C(NCCc1ccccc1)C1CCN(S(=O)(=O)N2CCOCC2)CC1,18%,1,-0.2,4,-2,19%
Cc1ccccc1SCC(=O)OCC(=O)NCc1ccccc1,0%,7,3.2,7,2,-17%
CN(CC(=O)NCc1cccs1)S(=O)(=O)c1cccc2cccnc12,6%,-7,-7.1,-15,-12,15%
CCOC(=O)CCCN(c1[nH]c(C)c(C)c1C#N)S(=O)(=O)c1ccc(C)cc1,x,0,-8.5,0,-11,4%
CNC(=S)N/N=C/c1ccc(-c2cc([N+](=O)[O-])ccc2Cl)o1,-3%,-3,2.5,-11,-3,-4%[15.4 µM]
Cn1cc(C(=O)N2CCCC(Nc3ccc(F)cc3)C2)c2ccccc21 (configuration not stated),2%,-6,-1.2,x,-12,-10%
CCNc1nc(NCC)n2c(SCC(=O)Nc3ccc(CC)cc3)nnc2n1,-13%,-11,-6.0,1,-5,1%[15.4 µM]
Cc1ccc2[nH]c3c(=O)n(CC(=O)N4CC(C)CC(C)C4)ncc3c2c1 (configuration not stated),4%,0,-1.4,-1,0,u
COCCNC(=O)CSc1nnc(-c2ccc(C)cc2)c(-c2ccc(C)cc2)n1,-62%,-20,-1.4,-21,-6,-1%[15.4 µM]
OC[C@H]1O[C@@H](c2nc(-c3ccccc3Br)no2)[C@H](O)[C@@H](O)[C@H]1O,x,4,-7.2,7,-18,x
